TRPML1 agonist: qHTS for Agonists of the Human Mucolipin Transient Receptor Potential 1 (TRPML1). Mucolipin-1 (Homo sapiens), Q9GZU1. TRPML1-expressing cells, Ca2+ dye fluorescence, FDSS; host cell line not named in the record; reference of the full effect not given here. activation, % (test concentration not listed). hit rate 0.12% among 410,000; in the data active = activation above about 50%; inconclusive = about 30% to 50%; inactive = below about 30%; further: 0% is about no effect; the text of the record puts the active cut at 80%
Target sequence (Q9GZU1 whole entry, looked up): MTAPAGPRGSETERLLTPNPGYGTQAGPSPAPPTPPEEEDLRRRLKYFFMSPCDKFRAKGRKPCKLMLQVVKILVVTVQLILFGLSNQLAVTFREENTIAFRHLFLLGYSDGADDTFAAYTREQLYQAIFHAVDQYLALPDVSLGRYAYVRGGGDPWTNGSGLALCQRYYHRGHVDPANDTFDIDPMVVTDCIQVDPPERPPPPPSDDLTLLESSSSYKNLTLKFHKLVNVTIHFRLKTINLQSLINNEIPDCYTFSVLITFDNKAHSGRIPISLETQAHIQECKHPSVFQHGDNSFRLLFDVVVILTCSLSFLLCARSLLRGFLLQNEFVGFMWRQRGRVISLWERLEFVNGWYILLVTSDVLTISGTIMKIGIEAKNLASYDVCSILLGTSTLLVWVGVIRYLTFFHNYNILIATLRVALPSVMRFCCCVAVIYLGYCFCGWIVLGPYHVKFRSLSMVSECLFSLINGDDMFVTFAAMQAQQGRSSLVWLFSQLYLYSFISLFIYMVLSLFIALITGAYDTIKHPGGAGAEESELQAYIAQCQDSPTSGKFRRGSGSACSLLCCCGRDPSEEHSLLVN
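Tet-induced TRPML1-DL cells, 1,500 per well, cultured overnight, were loaded with a no-wash Ca2+ dye for 45–90 min. Calcium fluorescence was recorded on the FDSS for 110 s after compound addition, before the EC80 agonist (4 uM 54-4) was added.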
D2 ag: Beta-Arrestin HTS for Positive Allosteric Modulators of the Human D2 Dopamine Receptor: Agonists; activation, % (no concentration beside the values); DiscoveRx PathHunter D2 beta-arrestin, luminescence, 90 min; 100% = 57 uM dopamine signal; hit rate 0.084% among 360,000; AID 624465, 2012; in the data active = activation above about 40%; inconclusive = about 15% to 40%; inactive = below about 15%; further: compound concentration not given in the record; the text of the record calls up to 30% inactive
Target sequence (P14416 whole entry, looked up): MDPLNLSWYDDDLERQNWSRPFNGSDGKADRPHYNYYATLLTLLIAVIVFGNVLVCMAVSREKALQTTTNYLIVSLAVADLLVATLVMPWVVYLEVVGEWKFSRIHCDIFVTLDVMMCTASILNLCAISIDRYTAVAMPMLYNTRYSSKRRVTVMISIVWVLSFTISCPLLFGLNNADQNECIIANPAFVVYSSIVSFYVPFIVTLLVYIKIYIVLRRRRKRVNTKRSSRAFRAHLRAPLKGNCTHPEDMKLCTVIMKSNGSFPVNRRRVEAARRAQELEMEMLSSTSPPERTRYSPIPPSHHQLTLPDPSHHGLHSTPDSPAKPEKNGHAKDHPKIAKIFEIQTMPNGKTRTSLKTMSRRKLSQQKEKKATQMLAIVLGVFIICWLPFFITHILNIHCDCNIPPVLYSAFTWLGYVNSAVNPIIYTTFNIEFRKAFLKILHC
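Agonist mode: compounds alone added to overnight-plated D2 PathHunter cells for 90 min at 37 C, with 57 uM final dopamine (EC100) defining full response. Beta-arrestin recruitment detected by chemiluminescent reagent, read after 1 h at ambient temperature.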
Six1-Eya2 inh: qHTS Assay for Inhibitors of the Six1/Eya2 Interaction; Homeobox protein SIX1 (Homo sapiens) + Protein phosphatase EYA2 (Homo sapiens), …; hit rate 0.56% among 360,000; activity change, % (no concentration beside the values); AlphaScreen GST-Six1/His-Eya2 binding, biochemical; stronger effect = lower value; control for the full effect not named in the record; AID 651725, 2012; in the data active = activity change below about -65%; inconclusive = about -30% to -65%; inactive = above about -30%; further: on the % scale 0 is the no-effect control and ±100 the full control effect; compound concentration not given in the record
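Six1/Eya2 binding was read as AlphaScreen signal after compounds were pinned into GST-Six1 plus His-tagged Eya2 (5X stock 250/500 nM) in pH 8.0 Tris/NaCl/TCEP buffer, beads added, then incubated 1 h, 37 C, dark.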
CtBP-E1A blk: qHTS Assay for Inhibitors of the CtBP/E1A Interaction | activity change, % (test concentration not listed) | AlphaScreen GST-E1A/His-CtBP binding, 1536-well; stronger effect = lower value; control for the full effect not named in the record | AID 651724, 2012 | CtBP / adenovirus E1A interaction (AlphaScreen) | hit rate 0.49% among 340,000; in the data active means activity change below about -65%; inconclusive means about -30% to -65%; inactive means above about -30%; further: on the % scale 0 is the no-effect control and ±100 the full control effect; compound concentration not given in the record
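GST-E1A and His-tagged CtBP (125 nM each as 5X stock) were preincubated with pin-transferred compound for 2 h at 37 °C in the dark, then glutathione donor and nickel acceptor beads were added for 1 h before AlphaScreen reading.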
PINK1 expr mod: A Quantitative High throughput Screen to Identify Chemical Modulators of PINK1 Expression; PINK1 immunofluorescence, high-content cytometry, 24 h; Potency, µM (top dose mostly 76.6 µM), for inactives: at the top dose activation (PINK1 increase), most hits filed as activators; hit rate 0.2% among 410,000; active = well fitted activation curve with a large enough effect; inconclusive = small, poorly fitted or top-dose-only effect; inactive = flat fitted curve, though single readings scatter; cell line not stated here;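 further: potency means the concentration at half of the fitted maximal effect; % of control where 0% means no effect; nearly all actives have a fitted effect of over 65% in size; a mitochondrial uncoupler was the plate control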
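Cells are seeded, rested 12 hours, then given compound at five concentrations or DMSO for 24 hours. After fixation, blocking and antibody staining, PINK1 amount and mitochondrial localization are scored; CCCP serves as control.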
TRPML1 blocker: qHTS for Inhibitors of the Human Mucolipin Transient Receptor Potential 1 (TRPML1); hit rate 0.02% among 390,000; Mucolipin-1 (Homo sapiens), Q9GZU1; activity change, negative = inhibition, % (concentration not given with the values); TRPML1-inducible cells, Ca2+ dye fluorescence, FDSS; stronger effect = lower value; inhibition of EC80 agonist-evoked calcium signal; in the data active means activity change below about -50%; inconclusive means about -30% to -50%; inactive means above about -30%;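 further: stimulus is agonist 54-4 at its EC80 concentration; on the % scale 0 is the no-effect control and ±100 the full control effect; compound concentration not given in the record; the text of the record puts the active cut at -80%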
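Calcium fluorescence in TRPML1-DL cells induced overnight with Tet: a 110 s read after compound pin addition, then a 110 s antagonist read after challenge with 54-4 at 4 uM final (EC80).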
* hit, by the source's call; ? = inconclusive; . = not tested or not shown; & = joins results of further samples; [ ] = dose if it differs, or a comment.

SMILES	TRPML1 agonist	D2 ag	Six1-Eya2 inh	CtBP-E1A blk	PINK1 expr mod	TRPML1 blocker
Cc1ccc(S(=O)(=O)Nc2ccc3cn[nH]c3c2)cc1C	-0.3	-1.8	-7	-1	0.7%	-1
CN1/C(=C\C=N\NC(=O)c2ccccc2Br)C(C)(C)c2ccccc21	0.9	-1.3	-6	-6	0.5%	18
FC(F)(F)c1ccc(NCc2ccccn2)nc1	-0.3	0.1	3	-7	0.0%	12
COc1ccc(CCC(=O)NCc2cn3ccccc3n2)cc1	2.3	1.8	-1	.	-0.8%	8
N#Cc1ccc(NC(=O)Nc2cccc(C#N)c2)cc1	1.0	13	2	.	32µM*	4
Cc1[nH]c2ccccc2c1C(=O)COC(=O)c1c(-c2c(F)cccc2Cl)noc1C	2.8	1.5	-5	1	?	19
CCCCOC(=O)C1[C@H]2C(=O)N(Cc3cccs3)C[C@]23C=C[C@H]1O3 (stereo partly specified)	-0.5	4.0	-1	1	26%[38.3 µM]	-14
COc1cccc(-n2nnnc2SCC(=O)Nc2nc3c(s2)CCCC3)c1	2.0	-0.7	-10	-6	-1.1%	-10
Cc1ccccc1CNC(=O)Cn1ccc2cc(S(=O)(=O)N3CCCCCC3)ccc21	-1.1	3.4	1	2	1.3%	-6
COc1ccccc1NC(=O)C(C)N(C)CC(=O)Nc1cccc2ccccc12 (stereo unspecified)	-0.5	-2.2	-8	1	-0.4%	4
CN(CC(=O)Nc1ccccc1Cl)C(=O)COC(=O)c1ccc([N+](=O)[O-])cc1Cl	0.0	?	-5	2	-1.1%	10
Cc1ccc(C)c(-n2ccnc2SCC(=O)c2c(N)n(C3CC3)c(=O)[nH]c2=O)c1	-0.3	-4.2	2	-11	-0.8%	-16
COc1ccc(C(=O)OC/C(O)=C(\C#N)c2nc3ccccc3[nH]2)cc1S(=O)(=O)N1CCOCC1	0.5	-2.6	?	?	2.1%	26
COc1ccc(OC)c(S(=O)(=O)NNC(=S)Nc2ccc3c(c2)OCO3)c1	-0.3	-3.5	4	-13	1.1%	-3
N#Cc1nc(Cc2cccc3ccccc23)oc1NCCN1CCOCC1	0.2	-0.4	-8	-11	2.1%[38.3 µM]	-21
N#CCCN(CCC#N)c1nnc(-c2ccccc2)s1	2.9	-2.2	-1	-1	7.3%[38.3 µM]	5
COc1ccc(OCC(=O)N2CCN(S(=O)(=O)c3ccc(Cl)cc3)CC2)cc1	-0.4	-2.2	-4	24	-7.0%[38.3 µM]	-15
CC(C)[C@H](NC(=O)OC(C)(C)C)C(=O)N1CCC(C(=O)N[C@@H](C)C(=O)Nc2ccc(F)cc2)CC1	1.2	0.6	0	.	3.1%	-21
CCOc1ccc(C(=O)Nc2ccc(S(=O)(=O)N3CCCCC3c3cccnc3)cc2)cc1 (stereo unspecified)	-0.6	.	.	.	2.1%	-6
C=CCOc1cccc(C2C(C(=O)c3ccc(C)o3)=C(O)C(=O)N2CCN2CCOCC2)c1 (stereo unspecified)	-0.1	-1.0	1	-2	1.4%	-3
O=c1c([N+](=O)[O-])c(N2CCOCC2)c2ccccc2n1-c1ccccc1	-0.9	-3.0	14	0	7.6%	10
O=C(N1CCCC1)C12CC3CC(C1)CC(C(=O)N1CCCC1)(C3)C2	0.2	-5.9	-2	1	0.4%	7
CCOC(=O)c1c(C)nc2c(c(SC)nn2-c2ccccc2)c1N	2.3	1.4	2	-1	4.2%	-4
CC1(C(=O)Nc2ccc3c(c2)OCCO3)CCN1C(=O)c1ccccc1CCc1ccccc1 (stereo unspecified)	-0.4	-2.4	-15	-8	2.0%	.
COc1ccccc1CN(Cc1c(Cl)cccc1Cl)S(=O)(=O)c1ccc(Br)cc1	21	.	.	.	1.8%	-26
COc1ccc(C(C)=O)cc1CSc1ccc(S(=O)(=O)N2CCOCC2)cn1	-0.5	-1.3	4	2	1.3%	4
O=C(O)c1cc(-c2ccc(/C=N/N3C(=O)C4C5C=CC(C6CC56)C4C3=O)o2)ccc1Cl (stereo unspecified)	0.5	-3.1	-1	.	-0.6%	2
O=C(CSc1ncn[nH]1)c1ccccc1	-0.6	-3.6	3	4	1.4%[38.3 µM]	0
COc1ccc(NC(=O)C2Cc3c(-c4ccc(Cl)cc4)ccnc3O2)cc1 (stereo unspecified)	0.0	3.6	-6	1	2.1%	35
CN(CCCn1ccc(N)nc1=O)Cc1ccco1	-0.5	-8.8	4	4	0.2%	12
CCOC(=O)C1CCN(C(=O)c2ccc(CNS(=O)(=O)c3ccc(OC)cc3)cc2)CC1	-0.4	-3.2	5	6	0.4%	13
CCSc1nc(C)cc(C)c1S(=O)(=O)c1ccccc1C	2.1	-3.6	4	11	0.2%	46
O=C(NC(Cc1ccccc1)C(=O)O)/C(=C/c1cccc([N+](=O)[O-])c1)NC(=O)c1ccco1 (stereo unspecified)	-0.6	2.4	7	3	1.3%	-20
C/C(=C\c1ccccc1)CN1CCN(C)CC1	-0.7	3.2	3	.	-0.9%	-3
CN(C)CCNC(=O)c1cccc2c(-c3ccc(F)c(F)c3)coc12	0.5	-5.9	5	1	5.1%	.
Cc1ccc(-c2ccc(=O)n(Cc3cc(C)ccc3C)n2)cc1	4.6&2.9	-0.4	14	-22	2.2%&4.5%	27&28
COc1ccc(N(CC(=O)Nc2ccccc2Cl)S(=O)(=O)c2ccc(C)cc2)cc1OC	-0.1	-5.7	3	-23	-1.5%	-24
CCCn1cc(C(CC(=O)O)C(=O)O)c2ccccc21 (stereo unspecified)	0.3	-0.5	-4	-11	2.4%[38.3 µM]	0
C[C@H]1COC(=O)[C@@H](CC(=O)OC(C)(C)C)C/C=C\C[C@H](CC(=O)NCCO)C(=O)N1	-0.2	1.7	-3	.	0.0%	-13
Cc1cc2nnc(SCC(=O)N3CCCCC3)n2c(N)n1	4.7	-4.5	1	1	1.4%	1

Exported as a markdown table: part of the list above.
| canonical_smiles | TRPML1 agonist | D2 ag | Six1-Eya2 inh | CtBP-E1A blk | PINK1 expr mod | TRPML1 blocker |
| --- | --- | --- | --- | --- | --- | --- |
| CCCCOC(=O)C1[C@H]2C(=O)N(Cc3cccs3)C[C@]23C=C[C@H]1O3 (stereo partly specified) | -0.5 | 4.0 | -1 | 1 | 26%[38.3 µM] | -14 |
| COc1cccc(-n2nnnc2SCC(=O)Nc2nc3c(s2)CCCC3)c1 | 2.0 | -0.7 | -10 | -6 | -1.1% | -10 |
| Cc1ccccc1CNC(=O)Cn1ccc2cc(S(=O)(=O)N3CCCCCC3)ccc21 | -1.1 | 3.4 | 1 | 2 | 1.3% | -6 |

The main list resumes, repeating the four entries before the break.
SMILES	TRPML1 agonist	D2 ag	Six1-Eya2 inh	CtBP-E1A blk	PINK1 expr mod	TRPML1 blocker
COc1ccc(N(CC(=O)Nc2ccccc2Cl)S(=O)(=O)c2ccc(C)cc2)cc1OC	-0.1	-5.7	3	-23	-1.5%	-24
CCCn1cc(C(CC(=O)O)C(=O)O)c2ccccc21 (stereo unspecified)	0.3	-0.5	-4	-11	2.4%[38.3 µM]	0
C[C@H]1COC(=O)[C@@H](CC(=O)OC(C)(C)C)C/C=C\C[C@H](CC(=O)NCCO)C(=O)N1	-0.2	1.7	-3	.	0.0%	-13
Cc1cc2nnc(SCC(=O)N3CCCCC3)n2c(N)n1	4.7	-4.5	1	1	1.4%	1
CC(Oc1ccc(Br)cc1)c1nc2c3ccccc3nc(=S)n2[nH]1 (stereo unspecified)	-0.1	-9.6	14	0	5.2%	15
O=C1[C@H]2CC3CCC2(O3)[C@@H]2OCCCN12 (stereo partly specified)	-0.1	-1.6	-1	.	-0.1%	-9
COc1ccc(C(=O)NCC2CCCO2)cc1 (stereo unspecified)	0.9	2.2	9	-1	1.1%	6
CC1/C(=C\c2ccc(Cl)cc2)C(=O)C2CC1C2(C)C (stereo unspecified)	-0.5	-5.6	8	8	5.8%	-1
Cc1ccccc1-n1c(-c2cccnc2)n[nH]c1=S	0.5	1.1	2	3	6.3%[38.3 µM]	22
O=C(CCCN1C(=O)S/C(=C/C=C/c2ccccc2)C1=O)Nc1ccc(C(=O)O)cc1	0.4	1.4	-21	-4	-1.2%	-6
COc1ccccc1NC(=O)CC(=O)c1cccc([N+](=O)[O-])c1	-0.2	-5.4	-4	-1	1.2%	-3
Cc1cc(/C=N/n2cnnc2)c(C)n1-c1cccc(Cl)c1	1.2	-3.8	-21	-7	1.0%	-3
O=C(COC(=O)CCC(=O)c1ccc(F)cc1)Nc1ccc2[nH]c(=O)[nH]c2c1	-0.3	1.2	-17	2	2.8%	13
O=C(NCC(=O)N1CCc2ccccc2C1)c1ccccc1Cl	-1.1	-1.7	3	-2	-0.2%	0
COc1ccc(C(=O)OC(C)CN2CCN(C)CC2)cc1OC (stereo unspecified)	0.9	1.5	15	-6	2.7%	-5
C=CCN1C(=O)CSc2ccc(C(=O)NCc3cccs3)cc21	1.8	0.4	1	-1	-0.4%	10
Cc1[nH]nc2c1C(C1CC=CCC1)C(C#N)=C(N)O2 (stereo unspecified)	-1.0	-3.9	-4	-1	2.5%	-11
CC(C)C[C@@H]1NC(=O)[C@H](C(C)C)NC(=O)c2cc([N+](=O)[O-])cc(I)c2NCC[C@@H](C(N)=O)NC1=O	-0.4	-4.2	4	0	0.7%	7
CCOc1cc(C2c3c(oc4ccccc4c3=O)C(=O)N2c2nccs2)ccc1O (stereo unspecified)	-0.3	-1.5	5	-2	-0.4%	11
Cc1ccccc1N(C(=O)c1csnn1)C(C(=O)NC1CCCCC1)c1ccncc1 (stereo unspecified)	-0.8	0.3	3	-16	0.0%	6
COc1ccccc1-c1nnc(NC(=O)CCS(=O)(=O)c2ccc(F)cc2)o1	-0.1	-1.6	-21	-8	3.2%	-14
CCOC(=O)N1CCN(c2cc(N3CCOCC3)c(F)cc2[N+](=O)[O-])CC1	-1.3	-4.3	-12	-5	-0.5%	-9
CC(C)OC(=O)CC(=O)CSc1nc2c(cc1C#N)CCC2	-0.6	-4.7	3	0	0.4%	-5
Cc1cc(NC(c2cccnc2)c2c(C)[nH]c3ccccc23)no1 (stereo unspecified)	0.9	-5.2	4	-3	-1.8%	4
O=C(O)c1cccc(Nc2ccc([N+](=O)[O-])c3nonc23)c1	-0.3	-7.4	-9	0	7.8%	-7
